Tgondii IFNg – T. gondii growth inhibition with IFN-gamma, primary screen, cell-based; Toxoplasma gondii growth in IFN-gamma-treated host cells; active compounds read low; reference of the scale not given here; 69,000 compounds, 3.8% hits; activity change, negative = inhibition, %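 (about 20 µM by stock and volumes)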;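 active = below -70%; inconclusive = fit judged invalid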;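 note: host cells are HeLa cells infected with Toxoplasma gondii; parasite growth read as luciferase light; one replicate is shown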
The depositor's hits bear a star; ? = inconclusive; & = joins results of further samples. The list is partial; count on the stated rates, not on these rows.

SMILES | Tgondii IFNg
CC(C)CC(=O)N1CCC2(CC1)CCn1c(-c3ccc(C(N)=O)cc3)cnc12 | 2
CC(C)N(C)Cc1cn2c(n1)CN(C(=O)Cc1cccs1)CC2 | 2
c1ccc(Cn2cc(CN3CCCO3)c(-c3cc4ccccc4o3)n2)cc1 | -30
CC1(C(=O)NCc2ccc(F)cc2F)CCN(C(=O)c2ccc3c(c2)OCO3)CC1 | 12
CC(=O)N1CCC2(CC1)N=C(c1cc(Cl)ccc1O)CC(c1ccccc1O)N2 (stereo unspecified) | -42
COc1cccc(Oc2ccc(-n3cnnc3)cn2)c1 | 47
CN1c2ccc(Br)cc2[C@H]2[C@H](CCN2C(=O)c2ccc(F)cc2)[C@H]1CO | 10
C[C@@H](NC(=O)C[C@@H]1CC[C@@H]2[C@H](COC[C@H](O)CN2Cc2ccc(C(F)(F)F)cc2)O1)c1ccccc1 | -11
COCc1nc(CN2CCCCC2c2nc3ccc(F)cc3[nH]2)no1 (stereo unspecified) | 3
Cc1ccc(C(=O)N2CCC(N3CCCC3)CC2C(=O)O)o1 (stereo unspecified) | -51
COc1ccc(CN2CCc3[nH]cnc3C2C(C)C)cc1O (stereo unspecified) | -4
CCS(=O)(=O)N1CCC2(CCOCC2COc2ccccn2)CC1 (stereo unspecified) | 4
COc1ccc(F)cc1C(=O)C1CCCN(CCn2c(=O)cc(C)[nH]c2=O)C1 (stereo unspecified) | 8
Cc1ccc(CC(=O)N2CCC3(CC2)NC(=O)c2cc(C)ccc2N3C)cc1 | -38
COc1ccc(CN2CCO[C@H]3[C@H]2CC[C@H]3OCCCn2cccn2)cc1 | -31
Cc1cc(C[C@@H]2CCC[C@H]2N(Cc2ccncc2)Cc2cccs2)on1 | -53
CC(C)CNC[C@@H]1[C@@H](c2ccccc2)[C@@H](CO)N1Cc1ccc(F)cc1 | -43
COc1ccc(N2CC(C(=O)Nc3ccc(C)cc3C)CC2=O)cc1 (stereo unspecified) | 0
FC(F)(F)C1CN(c2cc(-c3ccccc3)nc3ccccc23)CCO1 (stereo unspecified) | -24
COc1ccc(-c2nc(Nc3ccc(OC)cc3OC)c3ccccc3n2)cc1 | -36
C[C@@H]1CN([C@H](C)CO)C(=O)c2cc(-c3ccc(F)cc3)cnc2O[C@@H]1CN(C)S(C)(=O)=O | 226
Cc1nc(-c2ccc(Cl)cc2)sc1CCNC(=O)CC(C)C | 2
Cc1noc(C)c1C(=O)Nc1cnn(CC(=O)NC2CCCC2)c1 | -2
C[C@@H]1CN([C@H](C)CO)C(=O)c2ccccc2-c2ccccc2CO[C@@H]1CN(C)C(=O)Nc1ccnc(N2CCOCC2)c1 | 1
Cc1ccc(OC2(C(=O)N(C)Cc3nncn3C(C)C)CCNCC2)cc1 | 6
C/C=C/c1ccc([C@@H]2[C@H](CO)N(S(=O)(=O)CC)C23CN(C(C)=O)C3)cc1 | 92
CCS(=O)(=O)N1C[C@@H]2OCCN(CCN3CCCC3)[C@H]2C1 | 7
COc1nccnc1-c1ccc2c(c1)OCO2 | 10
CN(C)C(=O)c1cc2c(nc1NCC1CC1)CCN(Cc1ccccn1)CC2 | -48
C=CCOCC1NCCc2ncn(C(C)C)c21 (stereo unspecified) | 16
Cc1ccccc1-c1cnc2c(c1)C(=O)N([C@@H](C)CO)C[C@H](C)[C@@H](CN(C)Cc1ccccc1F)O2 | -13
COc1cccc(Cn2c3c(cc(-c4ccncc4)c2=O)CN(C(=O)C(C)N2CCOCC2)CC3)c1 (stereo unspecified) | -2
O=C(Cc1ccccc1)N1CCn2nnc(COc3cccnc3)c2C1 | 6
O=C1CCC2(CCN1)CCN(C(=O)C/C=C/c1ccccc1)CC2 | 13
O=C(Cn1c(=O)cc(C(=O)N2CCCCC2)c2ccccc21)Nc1cccc(F)c1 | -7
COc1cccc(OCC(=O)NCCc2sc(-c3ccc(F)cc3)nc2C)c1 | -40
O=C(Cn1ncc2c(N3CCOCC3)ncnc21)NC1CCCCC1 | -20
CC(=O)N1CCO[C@H]2CN(S(=O)(=O)c3cccnc3)C[C@@H]2C1 | 230
Cc1ccc2c(c1C)-n1cccc1C1(CCN(C(=O)CC3CCCC3)CC1)N2 | -88*
COc1ccc(OC)c(S(=O)(=O)Nc2cccnc2Sc2ccc(C)cc2)c1 | -43
CN(Cc1cc(-c2cccnc2)no1)C(=O)C(=O)c1ccco1 | -43
O=C(c1cccnc1)N1CCN2C[C@H](OCc3ccccn3)C[C@@H]2C1 | 6
Cn1cc(CN2CCC3(CC(=O)N(c4cccc(C#N)c4)C3)C2)cn1 (stereo unspecified) | 137
NS(=O)(=O)c1cc(C2(O)NC(=O)c3ccccc32)ccc1Cl (stereo unspecified) | 13&12&18
CCOC[C@]12COC[C@H]1CN(C(=O)c1ccc3ncccc3c1)C2 | 39

Ordered by length of the SMILES (lowest first): some entries from above.
SMILES | Tgondii IFNg
COc1nccnc1-c1ccc2c(c1)OCO2 | 10
O=C(Cn1ncc2c(N3CCOCC3)ncnc21)NC1CCCCC1 | -20
O=C(Cc1ccccc1)N1CCn2nnc(COc3cccnc3)c2C1 | 6
CN(Cc1cc(-c2cccnc2)no1)C(=O)C(=O)c1ccco1 | -43
O=C1CCC2(CCN1)CCN(C(=O)C/C=C/c1ccccc1)CC2 | 13
NS(=O)(=O)c1cc(C2(O)NC(=O)c3ccccc32)ccc1Cl (stereo unspecified) | 13&12&18
CCS(=O)(=O)N1C[C@@H]2OCCN(CCN3CCCC3)[C@H]2C1 | 7
CN(C)C(=O)c1cc2c(nc1NCC1CC1)CCN(Cc1ccccn1)CC2 | -48
COc1ccc(OC)c(S(=O)(=O)Nc2cccnc2Sc2ccc(C)cc2)c1 | -43
O=C(c1cccnc1)N1CCN2C[C@H](OCc3ccccn3)C[C@@H]2C1 | 6
CC(=O)N1CCO[C@H]2CN(S(=O)(=O)c3cccnc3)C[C@@H]2C1 | 230
O=C(Cn1c(=O)cc(C(=O)N2CCCCC2)c2ccccc21)Nc1cccc(F)c1 | -7
COc1cccc(Cn2c3c(cc(-c4ccncc4)c2=O)CN(C(=O)C(C)N2CCOCC2)CC3)c1 (stereo unspecified) | -2
Cc1ccccc1-c1cnc2c(c1)C(=O)N([C@@H](C)CO)C[C@H](C)[C@@H](CN(C)Cc1ccccc1F)O2 | -13

Continuation.
SMILES | Tgondii IFNg
COc1ccc(C(=O)N(Cc2ccc(Cl)cc2)C2(C(=O)NCc3ccccc3)CCN(C(C)=O)CC2)cc1 | 114
Cc1ccc(NC(=O)N2CCC(c3nc(C(=O)N(C)C)c(C)o3)CC2)cc1C | -33
Cc1ccc(SCC(=O)Nc2c(Br)cnn2C)cc1 | -25
O=C(Nc1ccc(F)cc1F)c1c(O)c2cccnc2n(-c2cccc(F)c2)c1=O | 52
Cc1cc(C(=O)N2Cc3nccn3CC(CN(C)C(C)C)C2)no1 (stereo unspecified) | 82
c1ccc(CN2CCC(NCc3cc(-c4ccco4)on3)CC2)nc1 | 2
COc1ccc(-c2nnc3c(C(=O)N4CCC(O)(c5ccc(Cl)cc5)CC4)cccn23)cc1 | 15
CC(C)CN1CCC(C2CCN(c3ncnc4nc[nH]c34)C2)CC1 (stereo unspecified) | -1
CCC(CC)C(=O)N1CCCc2c(cnn2-c2ccc(OC)cc2)C1 | -97*
COc1cccc(CN2CCC3(CC2)CCN(C(=O)C2CC=CC2)C3)c1 | -10
CN(C)c1nc(N(C)C)nc(N2CC(=O)N(c3ccc(Cl)c(Cl)c3)C2=N)n1 | 17
Cc1ccc(C)c(N2CCN(C(=O)CCC3Nc4c5ccccc5nc(=S)n4C3=O)CC2)c1 (stereo unspecified) | 5
O=C(c1ccccc1F)N1CC[C@H]2[C@H](CO)Nc3ccc(Br)cc3[C@H]21 | 6
C[C@]12CCC3c4ccc(OS(=O)(=O)O)cc4CCC3C1CCC2=O (stereo partly specified) | 17&28
COc1ccc(NC(=O)N2C[C@H]3[C@@H](c4ccccc42)[C@H](CO)N3Cc2ccccn2)cc1 | 22
Cn1c(COc2ccc(CC3SC(=O)NC3=O)cc2)nc2ccccc2c1=O (stereo unspecified) | -31
O=C(c1ccc(OC(F)(F)F)cc1)c1ncc[nH]1 | 86
CCOc1cc(C(=O)N2CCc3c([nH]c4ccccc34)C2c2ccccc2)cc(OCC)c1OCC (stereo unspecified) | -115*
CCC(=O)N1CC2(CN(Cc3ccc(F)cc3)C2)c2c(n(C)c3cc(OC)ccc23)[C@H]1CO | ?
CC(C)CCN1C2(CCN(C(=O)Cc3cccnc3)C2)c2ccccc2S1(=O)=O (stereo unspecified) | -8
C/C=C/c1ccc([C@@H]2[C@H]3CN(S(=O)(=O)c4ccc(OC)cc4)CCCCN3[C@H]2CO)cc1 | 5
CC1CCCCN1CCN(C)S(=O)(=O)NCc1ccccc1 (stereo unspecified) | -2
C=C(C)COc1cccc(C(=O)N(C)CC2(CO)CCOCC2)c1 | 13
Cc1ccc(-c2ccccc2[C@@H]2[C@H](C#N)N(c3ncc(-c4ccccc4)s3)[C@H]2CO)cc1 | 2
COc1ccc(Oc2ccc(C(=O)NCCN3CCNC3=O)cc2)cc1 | 8
Cc1cnc(C(=O)N2CCC3(C2)CN(c2cnn(C)c2)C(=O)CN3C)cn1 (stereo unspecified) | 2
COc1ncc(-c2cccc(C(C)N3CCCC3)c2)c(OC)n1 (stereo unspecified) | -11
CS(=O)(=O)NC[C@@H]1CCC[C@]2(CCN(CC3CCOCC3)C2)O1 | 68
CCOC(=O)c1cnc(SC)nc1-c1c(OC)cccc1OC | 0
CCOC(=O)N1CCC(NCc2csc(-c3cnccn3)n2)CC1 | -6
COc1ccccc1CNC(=O)C1=C(C)C(=O)OC12CCN(S(=O)(=O)c1cccs1)CC2 | 23
COc1cccc(NC2COC3(CCN(S(=O)(=O)c4ccc(C#N)cc4)CC3)C2)c1 (stereo unspecified) | -2
COc1ccc2c3c(n(C)c2c1)[C@@H](CO)N(S(C)(=O)=O)CC31CCN(C(=O)C2CCCC2)CC1 | -36
CN(C)C(=O)c1ccc(-c2ccc(Cn3ccnc3)cc2)cc1 | 5
CN(CC1(CO)CCOCC1)C(=O)c1ccc(NC(=O)C2CCC2)cc1 | 4
COc1ccccc1C(=O)Nc1ccc(-c2nc(Cn3cc(C)cn3)c(C)o2)cc1 | 15
COc1ccc(C(=O)NCCc2csc(-c3ccc(Cl)cc3)n2)c(OC)c1 | -85*
COc1ccc(-c2nc(NCC3CCN(Cc4ccc(C)cc4)C3)c3ccccc3n2)cc1 (stereo unspecified) | -56
CC(C)CC#Cc1ccc([C@H]2[C@H]3CN(C(=O)c4cccc(F)c4)CC(=O)N3[C@H]2CO)cc1 | -51
Cc1csc(SCC(=O)N2Cc3cnc(CC(C)C)nc3C2)n1 | 0
CCCn1ncc(C(=O)N2CCn3nc(C(=O)NC4CC4)cc3C2)c1C | 13
COc1ccc(-c2nc(N(C)C3CCCCC3)c3ccccc3n2)cc1 | -33
COCC(=O)N1[C@@H](CO)[C@H](c2ccccc2)C12CN(C(=O)c1ccccc1)C2 | 90
COC(=O)CCC(=O)Nc1ccc(C)cc1OC(=O)CCC(=O)OC | 12
Cc1ccccc1CCC(=O)N1CC[C@H]2O[C@@H](C)C[C@@H]2C1 | -59

3 entries out of the list, ordered by molar mass, low to high.
SMILES | Tgondii IFNg
CN(C)C(=O)c1ccc(-c2ccc(Cn3ccnc3)cc2)cc1 | 5
COc1ccccc1C(=O)Nc1ccc(-c2nc(Cn3cc(C)cn3)c(C)o2)cc1 | 15
COc1ccc2c3c(n(C)c2c1)[C@@H](CO)N(S(C)(=O)=O)CC31CCN(C(=O)C2CCCC2)CC1 | -36

(next part)
SMILES | Tgondii IFNg
CCC(=O)N1[C@H](CO)[C@H](c2ccc(-c3cccc(OC)c3)cc2)[C@@H]1CNC(C)=O | -7
Cc1cc(=O)[nH]c(CCNC(=O)[C@@H](O)c2ccccc2)n1 | -5
CCN(C)c1ccnc(N2CCN(c3cc(C)nc(N)n3)CC2)n1 | -45
CN(C)C(=O)c1ccc(-c2ccccc2-c2ccccc2)nc1 | 7
Nc1ncc(C(F)(F)F)cc1C(F)(F)F | 37
CCCS(=O)(=O)N1CCc2onc(CNc3ncccn3)c2C1 | 4
Cc1ccc2c(C(O)CN3CCC(O)(Cn4ccnc4C)CC3)c[nH]c2c1 (stereo unspecified) | 128
CC(C)N1CC2(CCN(C3CCOC3)CC2)c2ccccc21 (stereo unspecified) | 12
C[C@H](CO)N1C[C@H](C)[C@@H](CN(C)Cc2ccccc2)OCc2cn(nn2)CCCC1=O | 24
COCCC(=O)N1CCN(CCN(C)C)c2ncccc2C1 | -40
Cn1cc(N2CC3(CCN(CCO)C3)CC2=O)cn1 (stereo unspecified) | -87*
COCC(=O)N1CC(=O)N2[C@@H](CO)[C@H](c3ccc(-c4ccncc4)cc3)[C@@H]2C1 | 6
CN(C)C(=O)c1ccc(-c2ccc([C@@H]3[C@@H](CO)N4C(=O)CN(C(=O)CC5CC5)C[C@H]34)cc2)cc1 | -10
Cc1cc(C)nc(N2CC(=O)N(C)C2=N)n1 | 60
CN(Cc1cccc2ncccc12)C(=O)c1cnn(-c2ccc(F)cc2)c1 | -40
COC(=O)C(CCCN=C(N)N)NC(=O)CCCc1c(-c2ccccc2)[nH]c2c(F)cc(F)cc12 (stereo unspecified) | 23
CCc1ccc(S(=O)(=O)N2CCC3(CC2)Nc2cc(F)ccc2-n2cccc23)cc1 | -53
CC(CO)(CO)NC(=O)CCSc1ccc2c(c1)OCCO2 | 1
N#C[C@H]1[C@@H](c2ccc(-c3cccc(F)c3)cc2)[C@H](CO)N1C(=O)CN1CCOCC1 | -24
CC(C)OCC12CCCOC1CCN(S(=O)(=O)c1cn(C)cn1)C2 (stereo unspecified) | 0
CSc1n[nH]c(NC(=O)c2ccc(C(C)(C)C)cc2)c1-c1ccccn1 | -4
COC(C(=O)NCc1c(C)ncc2c1CCN(C(=O)/C=C/c1cccc(F)c1)C2)c1ccccc1 (stereo unspecified) | 2
CCOc1ccc(CC2c3cc(OCC)c(OCC)cc3CCN2C(=O)CN2CCN(C)CC2)cc1OCC (stereo unspecified) | 3
COC(=O)C[C@H]1CC[C@@H]2[C@H](COC[C@@H](O)CN2S(=O)(=O)c2ccccc2OC)O1 | 4
